# Screens from PubChem BioAssay.
# Anthrax LT inh: qHTS Assay for Anthrax Lethal Toxin Internalization | Cells, anthrax lethal toxin internalization, FRET ratio (460/530) | Potency, µM (highest dose often 40 µM), without a hit: at the top dose activity change, negative = inhibition, actives largely listed as inhibitors | 0.67% of 70,000 active; active = well fitted falling ratio curve with the 530 nm signal flat; inconclusive = other ratio curves, or a change in one channel alone; inactive = flat curves in the ratio and both channels; the % refers to the ratio; further: on the % scale 0 is the no-effect control and ±100 the full control effect; nearly all actives have a fitted effect of over 50% in size; tested in ME-180 cells; beta-lactamase reporter
# Prx2 Sm inh: Schistosoma Mansoni Peroxiredoxins (Prx2) | Schistosoma mansoni peroxiredoxin 2 (Prx2) | S. mansoni Prx2 activity coupled to TGR/GSH (TGR is thioredoxin glutathione reductase), NADPH fluorescence loss, qHTS; some inactives read as strong as hits | 0.07% of 65,000 active | Potency, µM; active means full or partial inhibition curve with a strong effect at the top dose; inconclusive means weaker partial or single-point curve; inactive means no accepted curve; further: series up to 57 µM; many of its hits are not listed in these tables
#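 Coupled assay in which S. mansoni TGR passes NADPH reducing equivalents via glutathione to Prx2, which reduces H2O2. Compounds were preincubated 15 min at room temperature with 25 nM TGR/50 nM Prx2 mix. Kinetic NADPH fluorescence loss (ex 365/em 450 nm) was monitored.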
# Active calls of the source: *; ? = inconclusive; nt = not tested or not shown; [ ] = dose if it differs, or a comment. Potency means the concentration at half of the fitted maximal effect. Only part of the results is shown. The share of hits here may be higher or lower than overall.
# Preview:
SMILES,Anthrax LT inh,Prx2 Sm inh
CCOc1ccc(N2C(=O)CC(NCCc3ccncc3)C2=O)cc1 (centres undefined),3.0%,>57
Cc1ccc(CC(NC(=O)c2ccccc2)C(=O)N2CCCC2C(=O)O)cc1 (centres undefined),-15.0%,?

# All compounds of this part, repeating the preview:
SMILES,Anthrax LT inh,Prx2 Sm inh
CCOc1ccc(N2C(=O)CC(NCCc3ccncc3)C2=O)cc1 (centres undefined),3.0%,>57
Cc1ccc(CC(NC(=O)c2ccccc2)C(=O)N2CCCC2C(=O)O)cc1 (centres undefined),-15.0%,?
Nc1ccc(N2C(=O)c3ccccc3C2=O)c(Cl)c1,-3.5%,>11.4
CC(C)(Oc1ccc(Cl)cc1)C(=O)N1CCN(c2ccccn2)CC1,-14.3%,nt
CC(C)Nc1nc(NC(C)C)nc(N(C)C(N)=O)n1,11.8%,>57
C[C@@H]1CCCN(C[C@@H](O)CN2CCCc3ccccc32)C1,-13.8%[8 µM],>57
O=C(c1ccc(F)cc1)c1cn[nH]c1-c1ccccc1O,?,>57
COc1ccc(C2OC(=O)CC2C(=O)NC(C)C)cc1 (centres undefined),7.7%,>57
O=C(NCc1ccc2c(c1)OCO2)c1cccc2c1C(=O)N(C1CCCCC1)C2,2.1%,>57
CCCc1n[nH]c2c1C(=O)CC(C)(C)C2,8.5%,nt
COc1ccc(NC(=O)CS(=O)CC(=O)Nc2cc(Cl)ccc2OC)cc1 (centres undefined),-1.4%,>57
O=C(c1ccc(-c2ccccc2)cc1)N1CCN(C(=O)c2ccco2)CC1,-20.4%,nt
c1ccc(CSCc2cn3ccsc3n2)cc1,6.5%,>57
C=CCc1ccccc1OCC(O)CN1CCN(c2ccc(C)cc2)CC1 (centres undefined),-19.1%,>57
O=C(COC(=O)C1COc2ccccc2O1)NC(=O)NC1CCCC1 (centres undefined),?,>57
CS(=O)(=O)N1CCCC(C(=O)NCCN2CCC(Cc3ccccc3)CC2)C1 (centres undefined),7.2%,>57
Cc1ccc(NC(=O)CC2C(=O)NC3CCCCC3N2C(=O)c2ccc(F)cc2)cc1C (centres undefined),-6.4%,>57
COc1ccc(NC(=O)N2CCCC(c3nc(-c4ccc(C(C)C)cc4)no3)C2)cc1 (centres undefined),-19.9%,>57
COc1ccc(NC(=O)CSc2nc(O)c(Cc3ccccc3)c(=O)[nH]2)cc1,15.5%,nt
CCOC(=O)C1=C(C)NC(c2ccccc2)=C(C(=O)OCc2ccc([N+](=O)[O-])cc2)[C@@H]1C#Cc1ccccc1,?,>57
OC(COC1CCCCC1)CN1CCN(c2ccccc2)CC1 (centres undefined),-4.2%,>57
O=C(Cn1cnc2c(cnn2-c2ccc(Cl)cc2)c1=O)NC1CCCCC1,8.3%,>57
CCOC(=O)c1c(C)oc2ccc(OC(=O)N3CCOCC3)cc12,-0.2%,>57
COc1ccc2c(c1OC)C(=O)N(c1ccc3c(c1)CCC3)C2=O,-15.5%,>57
O=C(c1c(F)cccc1F)N(Cc1ccccn1)C1CCCC1,?,>57
CCCCCC(=O)Nc1ccc(Cl)cn1,11.6%,>57
CN(C1CCCCC1)S(=O)(=O)c1ccc(NC(=O)CCC(=O)O)cc1,-13.9%,>57
O=C(c1cc2cc3ccc(Cl)cc3nc2o1)N1CCC2(CC1)OCCO2,4.0%,>57
Cc1ccc(-n2c(C)c3c(C)nnc(C)c3c2C)cc1,?,>57
CCCCc1nnc(NC(=O)C2CCCO2)s1 (centres undefined),15.0%,>57
O=C1c2ccccc2-c2ncnc3c(N4CCOCC4)cc(N4CCOCC4)c1c23,-7.0%,>57
Cc1nnc(Oc2ccccc2F)c2ccccc12,-14.2%,>57
CCn1c(SCC(=O)Nc2cc(C)on2)nc2c(c1=O)SC(C)C2 (centres undefined),12.7%,>57
CCOC(=O)C1CCCN(C(=O)CN2C(=O)C(CC)Oc3ccc(C)cc32)C1 (centres undefined),-11.1%,>57
O=C(CN1C(=O)NC2(CCCCCCC2)C1=O)N1CCOCC1,8.8%,>57
CC(=O)OC1COC(n2ccc3ccccc32)C(OC(C)=O)C1OC(C)=O (centres undefined),?,>57
CN(Cc1ccco1)c1ncncc1-c1ccccc1Cl,?,nt
COc1ccc(NS(=O)(=O)c2ccc(NC(=O)C(C)(C(F)(F)F)C(F)(F)F)cc2)nn1,-3.2%,>57
CCOC(=O)NC1CCS(=O)(=O)C1 (centres undefined),4.1%,>57
COc1cc(CN2CCN(C(=O)CC(C)C)CC2)cc(OC)c1OC,-14.9%,nt
CCOC(=O)C1CCCN(CCC(C)c2ccccc2)C1 (centres undefined),-5.6%,>57
CCn1c(SCC(=O)N2CC(=O)Nc3ccccc32)nnc1-c1ccoc1C,-5.0%,>57
COc1ccc(Br)cc1CNC(=O)CCc1nc(-c2ccc(C)cc2)no1,-2.7%,?
O=C(NCc1ccco1)c1ccc(CS(=O)(=O)Cc2ccc(Cl)cc2)o1,8.8%,>57
CN(C)C(=O)N1CCC(C(=O)NCc2cccs2)CC1,12.3%,>57

# No new results follow: entries from further up.
SMILES,Anthrax LT inh,Prx2 Sm inh
CN(Cc1ccco1)c1ncncc1-c1ccccc1Cl,?,nt
COc1ccc(NS(=O)(=O)c2ccc(NC(=O)C(C)(C(F)(F)F)C(F)(F)F)cc2)nn1,-3.2%,>57
CCOC(=O)NC1CCS(=O)(=O)C1 (centres undefined),4.1%,>57

# Other compounds follow.
SMILES,Anthrax LT inh,Prx2 Sm inh
C=CCN1C(=O)c2ccccc2Sc2ccc(C(=O)N3CCN(C)CC3)cc21,5.0%,>57
O=C(Nc1ccc(N2CCOCC2)cc1)c1cccc(S(=O)(=O)N2CCCC2)c1,-10.6%,>57
CCn1c(SCC(=O)Nc2nccs2)nnc1-c1ccc(S(=O)(=O)N2CCCCC2)cc1,6.4%,>57
O=C(c1csnn1)N1CCC2(CCN(Cc3ccccc3)CC2)CC1,?,>57
C=CCn1c(=N)c(C(=O)OCC)cc2c(=O)n3cc(C)ccc3nc21,8.7%,nt
O=C(NCC1CCCO1)NC12CC3CC(CC(C3)C1)C2 (centres undefined),5.4%,>57
O=C(OCc1cc(Cl)ccc1OC(F)F)c1cc(S(=O)(=O)O)ccc1O,-3.3%,>57
Cc1ccc(S(=O)(=O)N2CCCC2C(=O)Nc2ccc(O)cc2)cc1 (centres undefined),-0.9%,>57
Cc1csc(NC(=O)C(Cc2ccccc2)n2cccc2)n1 (centres undefined),-26.6%,>57
COc1cccc(C(=O)Nc2cccc(C(=O)N3CCOCC3)c2)c1,nt,>57
Cc1cc(N2CCN(C3CCCC3)CC2)n2nc(C)c(-c3ccccc3)c2n1,-11.5%,>57
CCOC(=O)CSc1ccc2nnc(-c3cccnc3)n2n1,-2.8%,>57
CC(C)(C)c1ccc(-c2noc(CCC(N)=O)n2)cc1,?,>57
Cc1cc(NC(=O)C2CCCC2)nc2c1c(=O)oc1ccccc12,-14.3%,>57
COc1ccc2c(c1)C(NC(C)=O)C(=O)N2C (centres undefined),3.0%,>57
CCOc1ccc(NC(=O)c2cccc3c2C(=O)N(Cc2cccnc2)C3)cc1,7.1%,>57
COc1ccc2oc(-c3ccccc3)c(OC)c(=O)c2c1,-10.1%,>57
CC(C)[C@H](N=Cc1ccccc1O)C(=O)O,-0.7%[8 µM],>57
CC(=O)N1CCC2(CCCN(Cc3nccs3)C2)CC1,9.7%,>57
Cc1cccn2cc(CNC(=O)c3ccco3)nc12,16.0%,>57
CCOC(=O)C1=C(C)N(CCO)C(=O)NC1c1ccccc1 (centres undefined),nt,>57
CN1CCCC2(CCN(C(=O)c3csnn3)CC2)C1,?,>57
O=C(c1ccc(Cl)cc1)C1CCN(C(=O)N2CCOCC2)CC1,?,>57
Nc1ccc2c(c1)C(=O)c1ccccc1C2=O,?,nt
COc1cc(OC)c(C(=O)CCCN2CCCC2)c(OC)c1,-11.6%[3.58 µM],>57
C=CCNC(=O)C1CC(=O)N(c2ccc(OCC(=O)Nc3ccc(OC)cc3)cc2)C1 (centres undefined),-1.4%,>57
CCOC(=O)Nc1ccc2ncn(C)c(=O)c2c1,7.5%,>57
C=CCn1c2ccccc2c2nnc(SCc3ccc4nonc4c3)nc21,6.6%,>57
COc1ccc(OC)c(NS(=O)(=O)c2ccc(NC(=O)C3COc4ccccc4O3)cc2)c1 (centres undefined),?,nt
Cc1cc(=O)oc2ccc(OC(=O)c3cccc(S(=O)(=O)N4CCOCC4)c3)cc12,1.6%,>57

# Complete entries as entered above. Order of values: Anthrax LT inh	Prx2 Sm inh
# CC(=O)N1CCC2(CCCN(Cc3nccs3)C2)CC1 reads 9.7%	>57
# COc1ccc2oc(-c3ccccc3)c(OC)c(=O)c2c1 reads -10.1%	>57

# The list goes on.
SMILES,Anthrax LT inh,Prx2 Sm inh
O=S(=O)(NC1CCCc2ccccc21)c1cnc[nH]1 (centres undefined),3.1%,>57
COc1ccc(C2=CC(c3ccc(Cl)cc3)n3cnnc3N2)cc1OC (centres undefined),?,>57
O=S(=O)(c1ccc2c(c1)OCCO2)N1CCC(n2cnc3cc(F)ccc32)CC1,-7.9%,>57
COCCNC(=O)CC(NS(=O)(=O)c1ccc(C)cc1)c1ccco1 (centres undefined),-1.1%,>57
CCC(C)(C)NC(=O)C(c1cccnc1)N(CCOC)C(=O)Cn1nnc2ccccc21 (centres undefined),?,>57
O=C(Oc1ccc([N+](=O)[O-])cc1)N1CCC(N2CCCCC2)CC1,?,>57
O=C(O)C1=C(C(=O)Nc2ccc(F)c(Cl)c2)CCCC1,-10.7%,>57
c1csc(-c2cnc3n2CCCC3)c1,5.9%,>57
c1ccc2c(c1)nc1n2CCS1,nt,>57
Cc1ccc(OC(=O)CCc2c(C)nc3ncnn3c2C)cc1,2.4%,>57
Cc1ccccc1Cn1cnc2c(nnn2Cc2ccc(F)cc2)c1=O,0.3%,>57
O=S(=O)(NC1CC1)c1ccc(S(=O)(=O)N2CCc3ccccc32)cc1,-8.7%,>57
COc1ccc(NC(=O)CN(C)S(=O)(=O)c2ccccc2)cc1OC,10.1%,>57
CC(C)(C)c1cc(C(c2cccnc2)N2CCN(CCO)CC2)cc(C(C)(C)C)c1O (centres undefined),?,?
CCCOC(=O)Nc1sc2c(c1C(=O)OCC)CCC2,-15.8%,>57

# Reformatted: entries from further up
# Values run as follows: Anthrax LT inh, Prx2 Sm inh
c1csc(-c2cnc3n2CCCC3)c1
  5.9%, >57
c1ccc2c(c1)nc1n2CCS1
  nt, >57

# Next records follow:
SMILES,Anthrax LT inh,Prx2 Sm inh
CC1CCc2nc(N)c(C#N)c(-c3cccn3C)c2C1 (centres undefined),5.5%,>57
N#C/C(C(=O)Oc1ccccc1)=C1\C=CC=CN1,-8.5%,>57
N[C@@H](CSC1(c2ccc(Cl)cc2)c2ccccc2-c2ccccc21)C(=O)O,?,>57
CCOC(=O)c1sc(NC(=O)CSc2nnc3c4ccccc4n(CC)c3n2)nc1C,12.8%,>57
CCc1ccccc1NC(=O)c1cc2sccc2n1C,?,>57
CCOC(=O)c1cnc(-n2cc(C)cn2)nc1Nc1ccccc1OCC,-13.3%,>57
O=C1c2ccccc2C(=O)N1OCCOCCOCCON1C(=O)c2ccccc2C1=O,-18.4%,>57
CS(=O)(=O)Nc1cccc2cccnc12,2.7%,nt
O=C(CSc1oc(-c2ccc(F)cc2)nc1S(=O)(=O)c1ccc(F)cc1)NCC1CCCO1 (centres undefined),0.0%,>57
CC(=O)c1ccsc1B(O)O,-5.4%,nt
FC(F)(F)c1cc(-c2cccs2)nc(N2CCOCC2)n1,?,>57
O=C(Cc1cccs1)Nc1cccc(C(=O)Nc2ccco2)c1,6.8%,>57
CCC/C=C(\CCC)C(NS(=O)(=O)c1ccc(C(F)(F)F)cc1)c1ccccc1 (centres undefined),-28.3%,>57
COc1ccc(OC)c(C2N(c3ccccn3)C(=O)C3CCCN32)c1 (centres undefined),-4.9%,>57
Clc1ccc(C2CC(c3ccco3)n3ncnc3N2)cc1Cl (centres undefined),?,>57
O=S(=O)(NCc1ccccn1)c1ccc2c(c1)OCCO2,?,>57
CCOC(=O)c1c(C)c(C(=O)NCc2ccc3c(c2)OCO3)c(C)n1C,-1.1%,>57
CCOC(=O)CSc1nc2c(sc(=S)n2CCc2ccccc2)c(=O)n1Cc1ccco1,?,>57
CCCCNc1nc(C)nc2c1nc(-c1ccccc1)n2C1CCN(Cc2ccccc2)C1 (centres undefined),12.6µM*,nt
COCC(=O)N1CCC2(CC1)CCN(c1cccc(-c3ccccc3)c1)CC2,2.8%,>11.4
COc1ccc(-c2cc(C(F)F)n3ncc(C(=O)NCC4CCCO4)c3n2)cc1 (centres undefined),?,>57
Cc1sc2c(c1C)C(c1cccs1)=NCC(=O)N2CC(=O)NCc1cccs1,-18.4%,>57
COc1cccc(C(=O)Nc2cnc(NC(=O)c3ccco3)cc2C)c1,?,>57
N#Cc1c(-c2ccco2)cc(-c2ccc(F)cc2)nc1N,-22.5%,>57
Cc1ccc(C(=O)O)cc1S(=O)(=O)N1CCSCC1,0.4%,>57
Cc1cc(C(=O)OCn2nnc3ccccc3c2=O)c(C)o1,-7.4%,>57
Cn1c(=O)n(C)c2cc(S(=O)(=O)NCCc3ccccc3)ccc21,9.0%,>57
O=C(NCc1ccco1)c1cc2n(n1)C(C(F)(F)F)CC(c1ccc(F)cc1)N2 (centres undefined),3.0%,>57
O=C(CSc1nc(-c2ccco2)cc(C(F)(F)F)n1)NC1CCCC1,-14.5%,>57
